TRPML1 inh – qHTS for Inhibitors of the Human Mucolipin Transient Receptor Potential 1 (TRPML1) | hit rate 0.02% among 390,000 | activity change, negative = inhibition, % (concentration not given with the values) | TRPML1-inducible cells, Ca2+ dye fluorescence, FDSS; hits give low values; inhibition of EC80 agonist-evoked calcium signal | AID 624415, 2012; in the data active means activity change below about -50%; inconclusive means about -30% to -50%; inactive means above about -30%;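 also: stimulus is agonist 54-4 at its EC80 concentration; % is scaled to controls: 0 for no effect and ±100 for the full control effect; compound concentration not given in the record; the text of the record puts the active cut at -80%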
Target sequence (Q9GZU1 whole entry, looked up): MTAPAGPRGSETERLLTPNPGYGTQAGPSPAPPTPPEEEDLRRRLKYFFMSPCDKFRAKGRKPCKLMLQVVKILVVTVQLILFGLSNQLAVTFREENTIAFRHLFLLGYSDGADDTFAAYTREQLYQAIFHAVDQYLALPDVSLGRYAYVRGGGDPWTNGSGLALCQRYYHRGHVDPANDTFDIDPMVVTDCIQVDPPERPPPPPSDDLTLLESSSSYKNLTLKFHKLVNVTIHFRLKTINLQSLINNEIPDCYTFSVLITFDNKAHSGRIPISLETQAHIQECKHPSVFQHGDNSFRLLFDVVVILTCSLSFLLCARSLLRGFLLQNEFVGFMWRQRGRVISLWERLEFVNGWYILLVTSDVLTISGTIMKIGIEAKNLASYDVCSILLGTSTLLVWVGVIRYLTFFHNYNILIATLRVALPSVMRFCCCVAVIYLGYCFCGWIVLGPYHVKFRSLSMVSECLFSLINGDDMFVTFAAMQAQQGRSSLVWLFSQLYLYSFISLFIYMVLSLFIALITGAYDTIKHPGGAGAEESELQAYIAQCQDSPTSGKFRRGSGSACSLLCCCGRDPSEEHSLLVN
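Tet-induced TRPML1-DL cells loaded with Ca8 no-wash calcium dye were read kinetically on FDSS. Compound addition was followed by EC80 agonist 54-4 (4 uM final); inhibition was read over 110 s.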
Sfp PPTase inh – qHTS Assay for Inhibitors of Bacillus subtilis Sfp phosphopantetheinyl transferase (PPTase); hit rate 3.5% among 310,000; 4'-phosphopantetheinyl transferase ffp (Bacillus subtilis), Q9F4F7; AID 1490, 2009; Biochemical Sfp PPTase activity, qHTS; Potency, µM, for inactives: max response, negative = inhibition, actives largely listed as inhibitors; active = well fitted inhibition curve with a large enough effect; inconclusive = small, poorly fitted or top-dose-only effect, or another doubt; inactive = no such curve, though single readings can be large or run the other way;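 also: the enzyme is Sfp with the accession as filed and its product quenches rhodamine fluorescence; potency is read from the fitted curve at half-maximal effect; 0% = enzyme reaction without inhibitor and -100% = no enzyme wells; top concentration of the series not given in the record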
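Buffer: 50 mM Hepes-Na pH 7.6, 10 mM MgCl2, 0.01% Nonidet P-40, 0.01% BSA. Enzyme 15 nM, pre-exposed to compound 15 min; substrates then added and fluorescence change tracked over 30 min.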
TRPV1 PAM – HTS Assay for Compounds that Act as Potentiators of the Vanilloid Receptor 1 | Transient receptor potential cation channel subfamily V member 1 (Homo sapiens), Q8NER1 | TRPV1-expressing cells, Fluo-8 calcium influx, capsaicin EC20 potentiation; host cell line not named in the record; control for the full effect not named in the record | potentiation, % at 8.33 µM | hit rate 0.02% among 320,000 | AID 540277, 2011; active means potentiation above 80%; inconclusive means 30% to 80%; inactive means below 30%; also: 0% is about no effect
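Cells expressing TRPV1 were dye-loaded with Fluo-8 and read kinetically: 10 s baseline, 3 min after compound (agonist portion), then 2 min after EC20 capsaicin (allosteric enhancer portion). Calcium-bound dye fluorescence at 480/520 nm.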
PINK1 expr mod – A Quantitative High throughput Screen to Identify Chemical Modulators of PINK1 Expression. hit rate 0.2% among 410,000. PINK1 immunofluorescence, high-content cytometry, 24 h. Potency, µM (doses to about 76.6 µM), for the others: at the top dose activation (PINK1 increase), usual class: activators. AID 624263, 2012; active = well fitted activation curve with a large enough effect; inconclusive = small, poorly fitted or top-dose-only effect; inactive = flat fitted curve, though single readings scatter; cell line not stated here;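 also: potency is read from the fitted curve at half-maximal effect; % of control where 0% means no effect; nearly all actives have a fitted effect of over 65% in size; a mitochondrial uncoupler was the plate control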
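Measures PINK1 amount and localization on or inside mitochondria by immunofluorescence. Stable cells get compounds at 5 concentrations for 24 hours before fixation and staining; CCCP controls included.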
ClpP mod – qHTS Assay for Activators of ClpP | ATP-dependent Clp protease proteolytic subunit (Bacillus subtilis (strain 168)), P80244 | purified B. subtilis ClpP, FRET peptide cleavage, 20 min | Potency, µM (doses to about 57.5 µM), inactives show at the top dose activity change, negative = active | hit rate 1.9% among 340,000; active = well fitted falling curve with a large enough effect; inconclusive = small, poorly fitted or top-dose-only effect; inactive = no such curve, though single readings can be large or run the other way; also: potency is read from the fitted curve at half-maximal effect; the source files actives as falling curves though it sought activators and does not explain the sign; nearly all actives have a fitted effect of over 65% in size; many hits overshoot -100%
Target sequence (P80244 whole entry, looked up): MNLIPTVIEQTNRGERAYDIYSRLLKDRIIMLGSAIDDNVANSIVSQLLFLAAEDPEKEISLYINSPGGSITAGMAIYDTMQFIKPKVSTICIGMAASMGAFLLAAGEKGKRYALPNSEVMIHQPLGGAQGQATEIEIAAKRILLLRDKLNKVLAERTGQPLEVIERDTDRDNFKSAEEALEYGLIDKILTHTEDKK
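Buffer: 100 mM Tris/HCl pH8, 100 mM KCl, 0.05% low protease BSA, 2.5% glycerol, 0.01% Tween-20. ClpP 10 microg/mL final; 20 min RT; delta FRET normalized to ADEP and DMSO controls.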
TRPML1 agonist – qHTS for Agonists of the Human Mucolipin Transient Receptor Potential 1 (TRPML1); Mucolipin-1 (Homo sapiens), Q9GZU1; TRPML1-expressing cells, Ca2+ dye fluorescence, FDSS; host cell line not named in the record; reference of the full effect not given here; activation, % (no concentration beside the values); hit rate 0.12% among 410,000; AID 624414, 2012; in the data active = activation above about 50%; inconclusive = about 30% to 50%; inactive = below about 30%; also: 0% is about no effect; the text of the record puts the active cut at 80%
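Kinetic FDSS Ca2+ read in Tet-induced TRPML1-DL cells (ABD Ca8 dye plus quencher, 45-90 min RT loading): baseline, then compound, then 110 s agonist window; EC80 agonist 54-4 at 4uM final added afterwards for a 110 s antagonist window.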
Menin MLL FP FL – qHTS Assay for Inhibitors Targeting the Menin-MLL Interaction in MLL Related Leukemias: Competition With Fluorescein Labeled MLL-derived Peptide | Fluorescence polarization, fluorescein-MLL peptide displacement from menin | FP activity change, % at 61.4 µM | 290,000 tested, under 10 active; inconclusive = falling polarisation curve, or a change in total fluorescence; inactive = total fluorescence flat and polarisation flat or rising; no compound was filed as active; the % refers to the polarisation; negative = inhibition;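 also: % of control where 0% means no effect; inhibitors lower the polarisation; unlabelled MLL peptide was the positive control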
An asterisk follows results filed as active; ? = inconclusive; / = not tested or not shown; [ ] = dose if it differs, or a comment.

SMILES	TRPML1 inh	Sfp PPTase inh	TRPV1 PAM	PINK1 expr mod	ClpP mod	TRPML1 agonist	Menin MLL FP FL
CC(=O)c1ccc(N2CCN(c3nc4c(S(=O)(=O)c5ccc(C)c(C)c5)nnn4c4ccc(Cl)cc34)CC2)cc1	-11	/	/	-1.3%	-4.2%	-0.9	/
CCOc1ccc(NS(=O)(=O)c2ccc(C(=O)N3CCCC3)cc2)cc1	6	/	-6	-0.9%	/	10	/
O=c1c2sc3ccccc3c2n(Cc2cccc(C(F)(F)F)c2)c(=O)n1Cc1ccc(F)cc1	-4	/	/	0.7%	?	0.3	/
COc1ccccc1C(=O)Nc1nnc(SCc2cc(=O)n3ccc(C)cc3n2)s1	-24	/	/	-13%	-26%	0.7	/
COc1ccc(OC)c(NC2c3ccccc3C(=O)N2Cc2ccc3c(c2)OCO3)c1 (configuration not stated)	-4	7%	-1	0.3%	-0.2%	0.1	3.0
Cc1ccc(Cl)cc1N1C(=O)CC(C)(C)CC1=O	-6	11%	-3	0.4%	0.3%	-0.1	5.3
Oc1nc(Nc2ccc(F)cc2)sc1/C=C1\C=Nc2ccccc21	-4	1%	11	11%	/	-0.7	25
CC(NC(=O)c1cccc(Cl)c1)C1CC2CCC1C2 (configuration not stated)	-2	-13%	0	3.3%	/	-0.4	1.6
COc1ccc(CCNC(=O)Cn2nnc(C(=O)Nc3cc(C)ccc3C)c2N)cc1OC	-5	20%	-11	7.0%	21%	-0.3	/
CC1(C)CC(=O)C(N=Nc2ccc3ncsc3c2)=C(O)C1	-5	-10%	2	-0.4%	-0.2%	-0.7	1.0

Molecules listed so far that have fluorine, in the order listed:
SMILES	TRPML1 inh	Sfp PPTase inh	TRPV1 PAM	PINK1 expr mod	ClpP mod	TRPML1 agonist	Menin MLL FP FL
O=c1c2sc3ccccc3c2n(Cc2cccc(C(F)(F)F)c2)c(=O)n1Cc1ccc(F)cc1	-4	/	/	0.7%	?	0.3	/
Oc1nc(Nc2ccc(F)cc2)sc1/C=C1\C=Nc2ccccc21	-4	1%	11	11%	/	-0.7	25

Further records
SMILES	TRPML1 inh	Sfp PPTase inh	TRPV1 PAM	PINK1 expr mod	ClpP mod	TRPML1 agonist	Menin MLL FP FL
COc1ccccc1N1CCN(c2nc(C)cc(C)c2C#N)CC1	18	5%	-2	-0.1%	/	1.9	-4.3
CC(=O)Nc1c(C)nn(-c2ccccc2)c1N1CCC(C(=O)Nc2cccc(C(F)(F)F)c2)CC1	-2	/	/	1.3%	1.7%	0.5	/
CC1CCCN(Cc2c(O)ccc3c(=O)c(-c4ccc(Cl)cc4)coc23)C1 (configuration not stated)	12	10%	2	2.2%	-21%	2.2	-2.1
CC1CN(c2ncc(/C=N/NC(=O)c3ccccc3O)s2)CC(C)O1 (configuration not stated)	-3	0%	5	0.1%	/	-0.5	0.4
O=C(COc1ccccc1Cl)NC(=S)Nc1ccccc1N1CCCC1	13	3%	-1	3.9%	-1.1%	-0.3	3.8
CC(=O)N(Cc1cc(=O)[nH]c2ccccc12)c1ccccc1	37	8%	-1	-0.9%	-30%	-0.4	3.4
O=C(Nc1ncccc1O)C1CCN(S(=O)(=O)c2ccc3ccccc3c2)CC1	1	/	3	4.1%	-1.7%	-0.3	/
CCCNc1nc(C)nc2c1cnn2CCc1ccccc1	-3	16%	-1	-0.5%	-1.9%	4.5	-1.9
CCOc1ccc(NC(=O)CN(c2ccc(OC)cc2)S(C)(=O)=O)cc1	-8	4%	5	-1.2%	-3.3%	-0.9	-0.4
Cc1nn(C(=O)c2ccc(Br)cc2)c(C)c1S(=O)(=O)N1CCOCC1	-13	/	/	0.4%	-0.9%	0.4	/
COc1ccc(Cl)cc1NC(=O)c1cccc(N2C(=O)C3CC=CCC3C2=O)c1 (configuration not stated)	-6	-5%	-1	0.1%	-2.3%	2.4	4.6
CCC(C)n1c(=N)c(C#N)cc2c(=O)n3cc(C)ccc3nc21 (configuration not stated)	-7	9%	-7	0.8%	-19%	0.9	?
CCCc1nc2ccccc2c(=O)n1/N=C/c1ccc(O)cc1	-6	12%	-24	7.9%	-1.9%	3.1	3.8
CCc1noc(C)c1C(=O)N1CCN(S(=O)(=O)c2ccc(C(C)C)cc2)CC1	1	/	2	0.7%	/	-0.8	/
COc1ccccc1CC(=O)Nc1ccc(OC)c(OC)c1	-6	13%	0	1.8%	-1.4%	-0.4	-0.7
O=C(Nc1ccccc1C(=O)O)c1cccc(C(=O)Nc2ccccc2C(=O)O)c1	40	38%[activator]	1	-0.7%	/	1.1	-4.3
CCOC(=O)c1cc(C)n(-c2ccc(Cl)cc2)c1C	-7	3%	-12	8.5%	/	3.2	11
Cc1ccc(C(=O)N(CN2CCCC2=O)c2ccccc2)cc1	-14	18%	-1	-0.2%	-0.7%	0.9	-2.1
Cc1oc(-c2cc(Cl)cc(Cl)c2)cc1C(=O)NCCc1ccccc1	13	14%	-7	7.1%	?	2.8	-1.3
O=C(O)C1CCN(C(=O)COc2ccc3c(c2)oc(=O)c2ccccc23)CC1	/	15%	3	-1.0%	4.5%	/	0.6
COC(=O)c1[nH]c2ccc(Cl)cc2c1NC(=O)CCN1CCOCC1	9	5%	5	-0.6%	?	1.2	5.4
Cc1ccc(CNC(=O)C(C)n2ccc3cc(S(=O)(=O)N4CCCC4)ccc32)cc1 (configuration not stated)	45	/	/	-1.3%	-5.3%	0.7	/
COCCCN1C(=O)c2ccc(C(=O)OCC(=O)NCc3ccccc3OC)cc2C1=O	29	6%	10	-0.3%	-1.0%	0.2	/
CCOCCCNC(=O)c1ccc2c(c1)N=C(CC)c1cc(Br)ccc1S2	4	-2%	-10	0.8%	/	0.0	6.7
COC(=O)/C(C#N)=C/c1c(Oc2cccc(C)c2)nc2ccccn2c1=O	10	1%	-1	-0.5%	/	0.2	0.9
COc1ccc(/C=N/NC(=O)C(=O)N2CCCC2)cc1OC	28	16%	-13	3.7%	-0.4%	2.2	-1.8
COc1ccc(NC(=O)Nc2cccc3c2O[C@H](CN(C)S(=O)(=O)c2ccc(F)cc2)[C@@H](C)CN([C@H](C)CO)C3=O)cc1	-17	/	/	1.0%	-1.2%	-0.6	/
CCOC(=O)c1c(NC(=O)CSc2nnnn2C)sc(CC)c1C	2	3%	2	2.6%[38.3 µM]	-2.6%	1.1	0.6
CC(=O)c1c(C)[nH]c(C(=O)OCC(=O)Nc2cccc(S(=O)(=O)N3CCCC3)c2)c1C	59	8%	-8	0.8%	-0.4%	-0.2	-3.7
CCOC(=O)c1c(-c2ccccc2)csc1NC(=O)C1CCCO1 (configuration not stated)	6	32µM*	-6	/	-3.6%	0.4	1.4
CCCCCCCCC(NC(=O)c1ccc(C#N)cc1)C(=O)NCCC (configuration not stated)	-10	/	27	5.1%	1.5%	-0.3	/
CCNC(=S)N/N=C(\C)c1cccc([N+](=O)[O-])c1	-2	-7%	-5	0.5%	/	-0.7	5.9
O=C(CC1(O)C(=O)Nc2ccccc21)c1ccc(-n2cnnn2)cc1 (configuration not stated)	6	29%	3	2.0%	0.6%	0.2	-0.2
NC(=S)Nc1cccc2[nH]ccc12	11	0%	2	2.7%	-1.3%	0.5	-0.8
O=C1c2ccccc2C(Nc2ccc3c(c2)OCO3)N1Cc1ccc2c(c1)OCO2 (configuration not stated)	-6	?	-1	-0.3%	-1.0%	0.1	-0.9
CSc1ncccc1C(=O)NCC(c1ccco1)N1CCCCC1 (configuration not stated)	-3	/	/	1.8%	-2.4%	2.6	/
COCC(CN1CCN(C2=NS(=O)(=O)c3ccccc32)CC1)OC(=O)c1ccc(OC)cc1 (configuration not stated)	1	12%	5	3.2%	/	-0.9	-0.6
CC(=O)Nc1ccc(S(=O)(=O)N2CCCC3CCCCC32)cc1 (configuration not stated)	-2	/	-14	-1.4%	-1.1%	0.2	/
CCC(=O)OCOc1ccc(/C=C2/CCC(CN(C)C)C2=O)cc1 (configuration not stated)	15	/	/	-2.0%	-2.0%	12	/
CCC(C)(C)NC(=O)CN(Cc1ccc2c(c1)OCO2)C(=O)CCC(=O)Nc1ccccn1	8	3%	15	0.7%	-0.4%	-0.5	-0.3
COc1cc(CCC(=O)OCC(=O)Nc2ccc(F)cc2F)cc(OC)c1OC	-8	8%	23	-3.0%	/	-0.1	-2.0
C=CCn1c(C)nnc1SCC(=O)Nc1ccccc1C(=O)NC1CC1	-14	/	8	-4.4%	1.5%	1.2	/
C/C(=N\NC(=O)CCc1ccc(S(=O)(=O)N2CCOCC2)cc1)c1ccccc1Cl	40	10%	9	2.3%	2.9%	-0.1	-0.6
CC(=O)c1ccc(N2CCN(C(=O)/C=C/c3ccc4ccccc4n3)CC2)cc1	5	26%	4	3.4%	-4.6%	1.0	1.6
CCCn1c(C(O)c2cccc(OC)c2)nc2ccccc21 (configuration not stated)	-4	7%	?	-0.4%	-1.4%	1.2	-0.7
COc1ccccc1NS(=O)(=O)c1ccc(C(=O)Nc2ncccc2O)cc1	-2	/	-8	3.6%	0.5%	-0.4	/
COc1cc(/C=C/c2ccc3c(Br)cc(Br)c(O)c3n2)ccc1O	66	-11%	-9	?	-2.5%	2.5	?
O=C(NCCC1=CCCCC1)c1ccc(F)c(S(=O)(=O)N2CCOCC2)c1	3	12%	-26	1.2%	0.1%	-0.6	-1.3
CCN(CC)c1ncnc2sc(C(=O)N3CCN(c4ccccc4)CC3)c(C)c12	8	-13%	-13	-0.1%	-1.4%	0.6	2.8
Cc1cc(F)ccc1NC(=O)c1cc(S(=O)(=O)N2CCOCC2)cn1C	-10	3%	-12	-0.6%	-4.4%	0.2	2.7
CC(=O)c1ccc(OCC(=O)NCc2ccc(F)cc2)cc1	7	1%	-14	-0.8%	-2.0%	2.9	-2.4
COc1ccc2ccc(=O)oc2c1CC(O)C(C)(C)O (configuration not stated)	4	1%	2	1.7%	4.0%	-0.1	1.0

Source: PubChem BioAssay
